RE007 growth inh: less growth of the S. pombe RE007 Vpr strain | S. pombe RE007 Vpr strain, BacTiter-Glo ATP luminescence, 24 h; control for the full effect not named in the record | Potency, µM (top dose mostly 92.2 µM), inactives show at the top dose activity change, negative = less growth | 360,000 compounds, 0.21% hits | AID 651644; active = well fitted falling curve with a large enough effect; inconclusive = small, poorly fitted or top-dose-only effect; inactive = no such curve, though single readings can be large or run the other way;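 also: % is scaled to controls: 0 for no effect and ±100 for the full control effect; nearly all actives have a fitted effect of over 50% in size; the assay follows cell death caused by Vpr and the record does not say whether a fall means rescue or toxicity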
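Fission yeast strain RE007, carrying one chromosomally integrated HIV-1 vpr copy, was seeded at OD 0.01 in PMG+AL medium with 23 nL pinned compound. After 24 h at 30 °C and 99% humidity, viability was read by BacTiter-Glo luminescence.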
StopGo reporter: FMDV 2A StopGo reporter, luciferase signal; human cells with a luciferase reporter of 2A StopGo recoding; control for the full effect not named in the record; Potency, µM (titrated, usually from 57.9 µM), for the others: top-dose signal change, negative = less light; 410,000 compounds, 1.2% hits; AID 1159524; active = well fitted falling curve with a large enough effect; inconclusive = small, poorly fitted or top-dose-only effect; inactive = no such curve, though single readings can be large or run the other way; tested in HEK293T cells; also: % is scaled to controls: 0 for no effect and ±100 for the full control effect; nearly all actives have a fitted effect of over 45% in size; luciferase light after 4 h
Cruzain noTriton: inhibitors of Trypanosoma cruzi cruzain without detergent; P25779; 200,000 compounds, 2.3% hits; purified cruzain, Z-FR-AMC fluorescence, no detergent; Potency, µM, inactives show max response, negative = inhibition, hits mostly inhibitors; active = well fitted curve in the direction sought with a large enough effect; inconclusive = small, poorly fitted or top-dose-only effect, or another doubt; inactive = no such curve, though single readings can be large; an effect the other way counts as inactive or inconclusive;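 also: plate controls were enzyme without inhibitor for no effect and buffer without enzyme for full effect; nearly all actives have a fitted effect of over 40% in size; top concentration of the series not given in the record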
Target sequence (P25779 123-467 limits assumed): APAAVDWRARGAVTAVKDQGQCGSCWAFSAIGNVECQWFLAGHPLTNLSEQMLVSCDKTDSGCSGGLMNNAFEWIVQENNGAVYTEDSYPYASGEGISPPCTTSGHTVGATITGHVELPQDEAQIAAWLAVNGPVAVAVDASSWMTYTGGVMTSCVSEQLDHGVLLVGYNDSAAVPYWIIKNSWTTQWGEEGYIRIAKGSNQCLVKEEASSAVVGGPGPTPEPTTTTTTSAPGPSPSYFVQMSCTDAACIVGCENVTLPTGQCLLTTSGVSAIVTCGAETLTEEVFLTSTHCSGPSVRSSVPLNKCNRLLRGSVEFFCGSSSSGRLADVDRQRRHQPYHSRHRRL
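Detergent-free condition (0.00005% Triton X-100) in acetate buffer pH 5.5 with DTT. 1.5 nM enzyme and compound were pre-mixed 15 min, then 2 uM Z-FR-AMC substrate added; reaction progress from fluorescence change between first and third reads (60 s).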
Cruzain inh Det: cruzain (T. cruzi) inhibition with detergent. Potency, µM, for inactives: max response, negative = inhibition, usual class: inhibitors. 200,000 compounds, 0.43% hits. AID 1478. purified cruzain, Z-FR-AMC fluorescence, 0.01% Triton; active = well fitted curve in the direction sought with a large enough effect; inconclusive = small, poorly fitted or top-dose-only effect, or another doubt; inactive = no such curve, though single readings can be large; an effect the other way counts as inactive or inconclusive;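 also: plate controls were neutral wells for no effect and buffer without enzyme for full effect; nearly all actives have a fitted effect of over 40% in size; top concentration of the series not given in the record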
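Cruzain (1.5 nM) preincubated 15 min at RT with compound in 100 mM sodium acetate pH 5.5, 5 mM DTT, 0.01% Triton X-100. Reaction started with 2 uM Z-FR-AMC; AMC fluorescence (ex 360/em 450 nm) change over 60 s gave rate.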
Marburg entry inh: Marburg virus entry inhibition; Marburg virus pseudotyped entry inhibition, cell reporter; control for the full effect not named in the record; about a third of the inactives were read at about 46 µM; 300,000 compounds, 1.8% hits; Potency, µM (series often up to 37.8 µM), for inactives: at the highest dose activity change, negative = inhibition, usual class: inhibitors; active = well fitted inhibition curve with a large enough effect; inconclusive = small, poorly fitted or top-dose-only effect, or effect the other way; inactive = flat fitted curve, though single readings scatter; tested in HEK293 cells; about a fifth of its hits are not listed in these tables; also: % is scaled to controls: 0 for no effect and ±100 for the full control effect; luciferase read-out
SARS PLpro yeast: inhibitors of SARS-CoV papain-like protease in yeast | Potency, µM (series often up to 32.9 µM), without a hit: at the top dose activity, positive = growth rescue | AID 485353 | 330,000 compounds, 0.19% hits | S. cerevisiae expressing SARS-CoV PLpro, growth rescue; control for the full effect not named in the record; also: 0% is about no effect; nearly all actives have a fitted effect of over 55% in size; growth read by luminescence after 48 h
NS1 function inh: influenza NS1 inhibition; S. cerevisiae slowed by influenza A NS1, growth recovery by OD600; Potency, µM (top dose mostly 46.1 µM), inactives show at the top dose activity, positive = more growth; 270,000 compounds, 0.4% hits; AID 2326; also: actives are rising curves; nearly all actives have a fitted effect of over 50% in size
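Growth recovery, yeast-based: influenza A NS1 expressed in S. cerevisiae causes slow growth, and suppressors are detected by OD600. The parent strain without NS1 is used as positive control.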
Lassa entry inh: blocks Lassa virus binding to or entry into cells. Lassa virus pseudotype entry inhibition, cell reporter; control for the full effect not named in the record. Potency, µM (top dose mostly 37.9 µM), inactives show top-dose activity change, negative = inhibition, usual class: inhibitors. 300,000 compounds, 1.2% hits. AID 540256; active means well fitted inhibition curve with a large enough effect; inconclusive means small, poorly fitted or top-dose-only effect, or effect the other way; inactive means flat fitted curve, though single readings scatter; tested in HEK293 cells; also: % is scaled to controls: 0 for no effect and ±100 for the full control effect; nearly all actives have a fitted effect of over 50% in size; luciferase read-out
Numbers without * were called inactive; ? = inconclusive; . = not tested or not shown; & = joins results of further samples; [ ] = another dose, or the depositor's remark. Unless noted, calls follow the shape of the dose curve; as a rule, active means well fitted rising curve with a large enough effect; inconclusive means small, poorly fitted or top-dose-only effect; inactive means no such curve, though single readings can be large or run the other way. Potency is read from the fitted curve at half-maximal effect.

SMILES	RE007 growth inh	StopGo reporter	Cruzain noTriton	Cruzain inh Det	Marburg entry inh	SARS PLpro yeast	NS1 function inh	Lassa entry inh
O=C(O)C1CCCN(S(=O)(=O)c2ccc(Br)s2)C1 (centres undefined)	-8%	-10%	.	.	15%	2%	.	25%
COc1ccc(/C=C/C(=O)Nc2ccccc2C(=O)N2CCCC2)cc1	-19%[3.69 µM]	-8%	6%	-0.5%	-12%	-5%	-3%	3%
CC(=O)NC1C(OCCOc2ccc(Cl)cc2Cl)OC(COC(C)=O)C(OC(C)=O)C1OC(C)=O (centres undefined)	3%	0%	?	7.8%	?	1%	-5%	2%
COc1ccc(OC)c(NC(=O)Cc2coc3ccc4ccccc4c23)c1	7%	-31%	-3%	-6.3%	-29%	-5%	-1%	-14%
Cc1ccc(S(=O)(=O)NCCC(=O)NC2CC2)cc1	-17%	-12%	.	.	.	-4%	-11%	.
Cc1ccc(N2C(=O)c3n[nH]c(C)c3C2c2ccccn2)cc1 (centres undefined)	0%	5%	-2%	2.4%	?	1%	0%	16%
COc1ccc(S(=O)(=O)Nc2ccc(O)c(Sc3nc4ccccc4s3)c2)cc1	54%	-12%&-15%	2%&-18%	-9.9%&-8.6%	-2%[46.1 µM]	-1%	-6%	0%[46.1 µM]
CCn1nc2cc(C(=O)NCC34CC5CC(CC(C5)C3)C4)ccc2c1OC	-18%	-12%	-4%	0.8%	.	4%	-6%	.
C=CC(C)Sc1nc2c(c(=O)n(C)c(=O)n2C)n1Cc1ccccc1Cl (centres undefined)	3%	-13%	22%	-4.0%	.	-1%	-55%	.
COC(=O)c1ccc(COc2cccc(OC)c2)o1	7%	53%[activator]	1%	0.4%	14%	-1%	-14%	4%
CC(=O)COc1c(-c2ccco2)oc2ccccc2c1=O	5%	-14%	.	.	.	26%	-4%	.
Cc1ccccc1N=Nc1c(O)[nH]c2ccccc12	-2%	72%[activator]	.	.	?	.	.	13%
COc1cc(C(=O)OCC(=O)NC2CCCCC2)cc(OC)c1OC	0%	-5%	.	.	22%	2%	.	-1%
COc1cccc(N(C(=O)c2ccco2)C(C(=O)NC2CCCC2)c2cccnc2)c1 (centres undefined)	4%	-12%	4%	6.9%	-16%	5%	-1%	-22%
COc1ccc(NC(=S)N2CCN(C(=O)c3ccco3)CC2)c(OC)c1	-9%	-7%	1%	-0.2%	-4%	6%	14%	1%
O=C(/C=C/c1cccc([N+](=O)[O-])c1)Nc1cccc(NC(=O)c2ccco2)c1	2%	-27%	?	-2.9%	?	2%	12%	20%
CC1=[N+](C)N(c2ccccc2)C(=O)C1N=C/C=C/c1ccccc1 (centres undefined)	-8%	-3%	.	.	.	1%	8%	.
N#Cc1cccc(CS(=O)(=O)c2ccc(Cl)cc2)c1	3%	-16%	.	.	4%	3%	-3%	.
O=C(NCc1ccccc1)C1=C[C@@H](C2CC2)C[C@@H](OCc2ccc(CO)cc2)O1	-13%	1%	.	.	.	-1%	-5%	.
C/C(=N\NC(=O)Cc1ccc(Cl)cc1)c1ccccc1O	10%	15%	.	.	?	-3%	-16%	-19%[46.1 µM]
COc1ccc(NC(=O)c2cc(-c3ccccc3Cl)on2)cc1OC	1%	15%	.	.	0%[46.1 µM]	2%	-19%	5%[46.1 µM]
CN1CC(C(=O)c2ccccc2)C(C(=O)c2ccccc2)C1 (centres undefined)	-4%	14%	8%	2.8%	-12%	-42%	-151%	20%
C1=C(CCNc2ncnc3nc[nH]c23)CCCC1	10%	0%	-7%	0.1%	-41%	25%	-53%	-27%
O=C(Nc1ccc(Cl)cn1)c1cnn2cccnc12	8%	-8%	-4%	1.9%	0%	.	?	12%
COC(=O)Cn1c2c(c3cc(C)ccc31)CCCC2NC(C)c1ccccc1 (centres undefined)	-9%	-13%	.	.	?	1%	-1%	19%
Next results.
SMILES	RE007 growth inh	StopGo reporter	Cruzain noTriton	Cruzain inh Det	Marburg entry inh	SARS PLpro yeast	NS1 function inh	Lassa entry inh
COc1ccc(OC)c(CCNC(=O)CCCn2c(=O)c3cccn3c3cccnc32)c1	.	-10%	6%	-0.4%	.	.	.	-6%[46.1 µM]
CCOC(=O)C1=C(N)OC2=C(C(=O)CC(C)(C)C2)C12C(=O)Nc1ccccc12 (centres undefined)	8%	.	1%	9.1%	-16%	1%	-4%	-3%
Cn1cc(C(=O)O)c(=O)c2cc(S(=O)(=O)N3CCCCC3)ccc21	.	-3%	16%	1.5%	.	.	.	-17%[46.1 µM]
Clc1cccc(N2CCN(c3ncnc4nc[nH]c34)CC2)c1	-5%	-17%	.	.	?	0%	4%	?
CC12CC(NC(=O)N1CCc1ccccc1)c1ccccc1O2 (centres undefined)	5%[3.69 µM]	?	2%	-4.5%	-23%	-1%	-15%	3%
CCNc1oc(-c2ccccc2F)nc1S(=O)(=O)c1ccccc1	-7%	-6%	.	.	-19%	0%	5%	12%
O=c1c([N+](=O)[O-])cn(O)cc1[N+](=O)[O-]	-12%	-25%	.	.	16%	.	.	0%
COc1ccc(NC(=S)N2CCC(Cc3ccccc3)CC2)cc1	?	-11%	.	.	3%[46.1 µM]	30%	-42%	?
CCN(C(=O)CN1C(=O)S/C(=C\c2ccccc2OC)C1=O)C1CCS(=O)(=O)C1 (centres undefined)	-8%	-8%	.	.	-24%[46.1 µM]	.	14%	9%[46.1 µM]
O=Cc1nc(-c2ccc(Cl)cc2)n2ccccc12	.	3%	?	-4.5%	?	-4%	2%	0%
COCCN(CCOC)C(=S)Nc1cc(S(=O)(=O)N(C)C)ccc1C	13%	-7%	.	.	19%[46.1 µM]	-7%	6%	19%[46.1 µM]
CCN1CCN(Cc2ccc(NC(=O)c3ccc(C)c(NC(=O)C(=O)c4c[nH]c5ccccc45)c3)cc2C(F)(F)F)CC1	-1%&0%&9%	?	.	.	.	-8%&0%	5%&2%	.
Cc1ccc(SCc2nc3ccccc3n2CC(=O)Nc2c(C)cccc2C)cc1	0%	-5%	-19%	1.1%	-14%	0%	-7%	?
Cc1cccc(Cn2c(=O)n(CC3CCC(C(=O)N4CCOCC4)CC3)c(=O)c3sccc32)c1 (centres undefined)	.	?	14%	-1.5%	.	.	.	-18%[46.1 µM]
O=C(CCn1ccc2ccccc21)Nc1ccc(N2CCOCC2)cc1	6%	-8%	1%	-1.4%	-3%	0%	12%	0%
CSc1nc2ccc3nc(NC(=O)c4cccs4)sc3c2s1	7%	.	-9%	2.8%	0%	0%	-4%	7%
COc1ccc(/C=N/NC(=O)c2nonc2C)cc1	?	-31%	-7%	-8.8%	14%	-9%	-23%	-16%
CCCOc1ccccc1C1CC(=O)NC(C)=C1C(=O)OCC(C)C (centres undefined)	11%	?	14%	-10%	?	-2%	17%	?
COc1cc(OC)c(OC)cc1/C=N/Nc1ncnc2c1[nH]c1ccc(C)cc12	-4%	-9%	.	.	13%[46.1 µM]	0%	1%	-2%
C=CCn1c(SCC(=O)c2c(N)n(C3CC3)c(=O)[nH]c2=O)nnc1-c1ccc(OC)cc1	28%	-16%	.	.	24%[46.1 µM]	1%	.	2%
COCCN(Cc1nc2ccccc2c(=O)[nH]1)C(=O)COc1ccccc1-c1ccccc1	-7%	-30%	.	.	?	4%	.	?
COC(=O)c1ccccc1N/C=C1\CCc2c(c(C)nn2-c2ccccn2)C1=O	-10%	-40%	?	0.0%	?	2%	-4%	-21%
Cc1cc(C)cc(NC(=O)CSc2nncn3c2cc2occc23)c1	.	-14%	-1%	-3.7%	.	.	.	9%[46.1 µM]
O=C1c2ccncc2C(=O)N1C1CCCCC1	4%	31%[activator]	8%	3.0%	1%	4%	-1%	3%
COC(=O)C1=C(C)Nc2ncnn2C1c1ccco1 (centres undefined)	2%	-10%	11%	3.3%	2%	1%	1%	5%
(more compounds)
SMILES	RE007 growth inh	StopGo reporter	Cruzain noTriton	Cruzain inh Det	Marburg entry inh	SARS PLpro yeast	NS1 function inh	Lassa entry inh
CC(=O)c1c(C(C)=O)c(C)n(-c2cccc3cccnc23)c1C	5%	-5%	.	.	22%[46.1 µM]	-1%	4%	4%[46.1 µM]
O=C(Nc1nc2ccccc2s1)c1cnccn1	-25%	.	-5%	0.0%	6.5µM*	-10%	-8%	?
COc1ccc(CCC(=O)Nc2cc([N+](=O)[O-])ccc2OC)cc1	?	-11%	-5%	-5.9%	-27%	20%	-12%	-1%
COc1cc(NC(=O)c2cc(-c3cccc(O)c3)on2)cc(OC)c1OC	4%	?	15%	-2.5%	.	-5%	-14%	.
CCOc1ccc(C(=O)NCC(=O)N2CC=C(c3ccccc3)CC2)cc1OCC	7%	-25%	.	.	-18%	0%	.	-3%[46.1 µM]
O=C(/C=C/c1ccc(S(=O)(=O)NCc2ccco2)cc1)NCc1cccc(Cl)c1	16%	-17%	-6%	-8.3%	-16%	-8%	7%	-21%
Cc1cccc(Nc2ncccc2C(=O)O)c1C	3%[18.4 µM]	9%	0%	12%	-3%	4%	-1%	.
Cc1noc(C)c1C(=O)Nc1sc(C)c(C)c1C#N	-3%	0%	7%	-0.2%	-23%	-7%	-64%	0%
CCNC(=O)CN1C(=O)NC(Cc2ccccc2)(Cc2ccccc2)C1=O	8%	-6%	.	.	1%	-4%	.	2%
COC(=O)c1c(SCC(=O)Nc2ccccc2C(F)(F)F)[nH]c2ccc(Cl)cc2c1=O	.	0%	-15%	0.6%	.	.	.	?
CC(C)CCNC(=O)c1cc(C(=O)c2cc(F)ccc2O)cn(CCC(C)C)c1=O	14%	-6%	.	.	8%[46.1 µM]	0%	.	1%
CCC1CCCCN1CCCNC(=O)CN1C(=O)COc2ccc(S(=O)(=O)N3CCOCC3)cc21 (centres undefined)	-9%	5%	.	.	.	-2%	1%	.
CCC(C)Nc1oc(-c2ccc(COc3ccc(Cl)cc3)o2)nc1C#N (centres undefined)	.	?	2%	-6.3%	2%[46.1 µM]	.	.	12%[46.1 µM]
Cc1ccc(OCCNC(=O)c2ccccc2SCC(=O)N2CCCC2)cc1	17%	6%	.	.	6%	4%	.	-4%
Cn1cnc2c1c(=O)n(Cc1ccccc1)c(=O)n2C	-1%	-23%	-9%	2.2%	.	-5%	-2%	.
